Screening data from PubChem.
MT1-MMP act inh = blocks activation of human MT1-MMP; P50281; GFP/RFP ratio change, % at 20 µM; hit rate 0.061% among 360,000; HT1080 RFP-PRO-GFP cells, GFP/RFP ratio fluorescence, overnight; percent of plate control window, DMSO zero;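 active = GFP/RFP ratio change of at least 30% with cell ATP level not reduced by more than half and red fluorescence within 50% of control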; also: strong numbers were not always called active
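Assay system: HT1080 cells carrying an RFP-PRO-GFP reporter | Dosing: Single dose of 20 µM compound, 1% DMSO final | Incubation: Cells overnight before dosing, compound overnight, 37 °C, 5% CO2 | Evaluation: GFP/RFP fluorescence ratio | Control set: DMSO and RFP-L50D-GFP cell wells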
UUG fidelity = alters start codon recognition fidelity in yeast. AID 602363. hit rate 0.13% among 350,000. activity score, % at 18.7 µM. S. cerevisiae UUG-firefly luciferase reporter, luminescence/redox ratio;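 active = replicate mean at a twofold rise or more, about +100% in these data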;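 also: firefly luciferase made from a UUG start codon reports start codon fidelity; reporter light over untreated wells divided by growth signal over untreated wells; some hits fall short of that in this replicate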
PABP FP inh = blocks human PABP binding to poly(A) RNA. P11940. fluorescence polarization. inhibition, % at 35 µM. hit rate 1% among 290,000. AID 2014;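 active = 50% or more with normal probe brightness, or confirmed in later tests; inconclusive = above 50% with abnormal brightness, or retests that disagree; inactive = below 50% or failed in later tests; about a fifth of its hits are not listed in these tables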;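 also: calls also rest on retests at 20 µM and on dose response follow-up; controls were probe without protein and protein plus probe with vehicle; some compounds called inactive have numbers as strong as hits; many hits fall short of the cut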
Target sequence (P11940 whole entry, looked up): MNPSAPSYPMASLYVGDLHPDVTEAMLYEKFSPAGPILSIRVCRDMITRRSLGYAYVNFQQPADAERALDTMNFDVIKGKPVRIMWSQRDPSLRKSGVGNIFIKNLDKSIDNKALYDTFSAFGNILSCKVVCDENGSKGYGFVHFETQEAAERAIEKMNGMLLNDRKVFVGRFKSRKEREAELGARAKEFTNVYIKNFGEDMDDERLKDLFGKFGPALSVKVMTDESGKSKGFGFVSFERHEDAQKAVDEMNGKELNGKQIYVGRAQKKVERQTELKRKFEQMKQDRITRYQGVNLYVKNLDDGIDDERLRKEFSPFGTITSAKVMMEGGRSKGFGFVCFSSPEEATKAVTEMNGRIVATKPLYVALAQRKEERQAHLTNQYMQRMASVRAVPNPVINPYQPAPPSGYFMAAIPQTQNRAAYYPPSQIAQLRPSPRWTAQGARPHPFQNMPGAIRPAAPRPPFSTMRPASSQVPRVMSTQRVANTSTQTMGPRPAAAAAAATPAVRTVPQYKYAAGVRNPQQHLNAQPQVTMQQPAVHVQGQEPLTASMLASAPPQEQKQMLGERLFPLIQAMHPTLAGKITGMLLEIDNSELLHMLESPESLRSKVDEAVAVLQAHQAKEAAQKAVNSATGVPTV
HIV Env fusion = inhibitors of HIV Env-mediated cell fusion; HeLa-JRFL Env/CEM21 cell fusion, luciferase; inhibition, % at 12.3 µM; hit rate 1.1% among 360,000;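 active = mean replicate inhibition score of at least 50 and every replicate individually at or above 50; inconclusive = only one of the two criteria met; inactive = mean below 50 and not all replicates reaching 50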;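 also: 0% = plate neutral controls and 100% = maraviroc near 300 nM; one replicate is shown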
Rce1 inhib = inhibitors of yeast Ras-converting enzyme | Q03530 | yeast membranes, quenched prenylated peptide cleavage fluorescence | hit rate 0.27% among 290,000 | calls only | AID 2563;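 active = fall in fluorescence gain of 50% or more versus controls, with final raw signal at or below 3038400; inconclusive = same 50% fall but final raw signal above 3038400; inactive = fall in fluorescence gain under 50%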;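 also: plate controls were neutral control wells for no effect and wells lacking membranes for full effect; tested at 10 µM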
Target sequence (Q03530 whole entry, looked up): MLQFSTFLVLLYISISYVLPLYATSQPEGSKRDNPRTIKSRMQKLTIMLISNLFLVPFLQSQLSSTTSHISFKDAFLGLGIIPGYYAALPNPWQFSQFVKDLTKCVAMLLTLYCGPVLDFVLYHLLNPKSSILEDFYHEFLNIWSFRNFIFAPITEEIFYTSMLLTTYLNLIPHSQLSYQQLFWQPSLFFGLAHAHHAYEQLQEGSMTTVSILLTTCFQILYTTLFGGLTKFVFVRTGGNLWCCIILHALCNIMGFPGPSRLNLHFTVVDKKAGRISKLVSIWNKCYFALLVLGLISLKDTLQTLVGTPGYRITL
CSC inhib = cancer stem cell inhibition; cancer stem cell-like cells viability, luminescence; inhibition, % at 7.5 µM; hit rate 1.1% among 300,000; AID 2717;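 active = mean at 75% or more and at least half the replicates too; inconclusive = mean and replicates disagree; tested in HMLE shEcad cells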;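 also: 0% = median of negative and 100% = median of positive control wells; the first replicate is given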
eIF4H inh = inhibitors of RNA binding by human eIF4H; Q15056; eIF4H fluorescence polarization binding assay; inhibition, % at 35 µM; hit rate 0.94% among 290,000;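 active = 50% or more with normal probe brightness, or confirmed in later tests; inconclusive = above 50% with abnormal brightness, or retests that disagree; inactive = below 50% or failed in later tests; about a fifth of its hits are not listed in these tables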;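 also: calls also rest on retests at 20 µM and on dose response follow-up; 0% = protein and probe with vehicle and 100% = probe without protein; strong numbers were not always called active; many hits fall short of the cut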
eIF4H inh retest = also measured in eIF4H inh; calls as there; inhibition, %; compound at 20 µM; confirmation average;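 mean of two retest wells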
PABP FP inh retest = also measured in PABP FP inh; calls as there; inhibition, %; compound at 20 µM; confirmation repeats;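 mean of two retest wells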
MT1-MMP act inh RFP = further read-out of MT1-MMP act inh, marked with its call; RFP signal change, %; measured here: RFP expression control read;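 0 = vehicle wells; hits needed this value within 50% of zero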
Numbers without * were called inactive; i = inactive; ? = inconclusive; / = no result given.

SMILES	MT1-MMP act inh	MT1-MMP act inh RFP	UUG fidelity	PABP FP inh	HIV Env fusion	Rce1 inhib	CSC inhib	eIF4H inh	others
Cc1ccc(SCC(=O)OCC(=O)NCCc2ccccc2)cc1	4	6	-10	/	/	/	0	/
COc1ccc(OC)c(NC(=O)CSc2nc3nc(C)cc(C)n3n2)c1	-1	0	-10	/	/	/	-16	/
C=CCn1c(=O)c(C(=O)Nc2ncccc2C)c(O)c2ccccc21	9	1	-14	/	0	/	/	/
COc1ccc2c(c1)C(=O)N1[C@H]3c4cc(OC)ccc4OC[C@@H]3[C@H](c3ccccc3)[C@]1(C)C(=O)N2	4	-1	13	/	27	/	0	/
CCOc1ccc(-c2csc(Cn3c(CN4CCN(C)CC4)nc4ccccc4c3=O)n2)cc1	-7	-7	/	-3	32	i	3	-3
O=C1C=C(O)c2cccc(O)c2C1=O	5	-3	-9	45	/	/	-9	26
CCCCCSc1nnc(-c2cc(Br)ccc2N)c(=O)[nH]1	2	1	/	4	-20	i	5	-7
COC(=O)CN(C(=S)Nc1ccccc1)C1CC(=O)N(c2ccc(OC)cc2)C1=O (configuration not stated)	2	1	/	-9	/	i	-12	-8
O=C(N/N=C/c1ccc([N+](=O)[O-])o1)c1cc2ccccc2o1	-11	-18	/	37*	-73	i	8	70*	eIF4H inh retest=63*;PABP FP inh retest=70*
Cc1cccc(NC(=O)NC2CC3CCC(C2)N3Cc2ccco2)c1 (configuration not stated)	-2	1	/	0	2	i	6	-8
CN(C)c1nc(-c2cccs2)cc(C(F)(F)F)c1C#N	-7	1	-5	-3	-5	i	6	11
CCc1ccc(OC)c(S(=O)(=O)NCc2cccs2)c1	0	0	-6	/	/	/	-18	/
Cc1cccc(NC(=S)NC(NC(=O)OCc2ccccc2)C(Cl)(Cl)Cl)c1 (configuration not stated)	5	-5	-15	-8	/	i	34	-15
C=CCOc1ccc2c(c1)C(=NO)c1cc(OCC=C)ccc1-2	3	-6	0	4	/	/	/	4
COc1ccc(C2(CNC(=O)Cc3ccc(OC)c(OC)c3)CCCC2)cc1	-1	-3	/	-4	3	i	-3	-4
O=C(Nc1ccon1)C12CC3CC(C1)CC(n1cnc([N+](=O)[O-])n1)(C3)C2	-2	4	-14	-6	-22	i	/	8
O=C(CN1C(=O)c2ccccc2S1(=O)=O)NCc1ccccc1Cl	-1	6	-10	-16	10	i	0	-10
O=C(Nc1ccccc1F)Nc1ccccc1F	-1	-3	-8	-5	-2	i	11	5
Cc1ccc(OCC(=O)N/N=C/C=C/c2ccco2)cc1C	1	5	/	-1	-5	i	16	86	eIF4H inh retest=-6;PABP FP inh retest=3
CCN1C[C@@H]2[C@@H]3C(=O)N(Cc4ccccc4)C(=O)[C@@H]3[C@](C)(C1=O)N2C(=O)c1ccc(F)cc1	0	5	6	/	7	/	/	/
CCN1C(=O)[C@@H]2[C@@H](c3ccc(SC4CCCCC4)cc3)N3CCC[C@@]3(C(=O)OC)[C@@H]2C1=O	0	0	-15	/	2	i	-18	/
CC(=O)Nc1cccc(C(=O)N/N=C/c2cccnc2)c1	1	5	-7	-17	17	i	-9	3
COc1ccccc1N1CCN(CCCCOc2cccc3ccccc23)CC1	-1	2	-17	-2	-29	i	-6	-2
Cc1ccc(NC(=O)CSc2nncc3ccccc23)cc1	2	4	/	1	2	i	11	2
CCOC(=O)C1C(=O)NC(C)C1c1ccccc1 (configuration not stated)	2	4	4	4	/	i	6	-6
CSc1nc2c(c(-c3ccccc3)c1C#N)CCC2	0	-2	-13	/	-48	i	-7	/
COc1ccc(Cl)cc1-c1n[nH]c(=S)n1C1CCCCC1	-2	-5	-29	4	-23	i	0	2
OCC[C@@H]1C[C@@H](O)[C@H](O)[C@]2(Cc3ccccc3O2)O1	-1	2	-17	-13	-40	i	-8	-16
COc1cccc(-c2nn(-c3ccccc3)cc2CN(C)C(C)c2ccncn2)c1 (configuration not stated)	0	0	-12	9	0	i	2	-1
Cc1cc2nc(-c3ccncc3)cc(C(F)(F)F)n2n1	2	6	/	-3	-8	i	-10	-9
COCCNC(=O)C(=O)NCC1OCCN1S(=O)(=O)c1ccc(C)cc1 (configuration not stated)	-4	-1	2	6	17	i	-6	-5
Cn1c(NC(=O)CC(C)(C)C)cc(=O)n(C)c1=O	2	5	-14	-21	23	/	-4	13
COc1ccccc1CNS(=O)(=O)c1cc(-c2cc(C)no2)ccc1C(C)C	1	-3	-15	7	-6	i	21	4
O=C(COc1nnc2ccccn12)N1CCN(S(=O)(=O)c2ccccc2)CC1	4	6	-8	/	-3	i	13	/
CSc1cnn(Cc2ccccc2)c(=O)c1SCc1ccccc1	0	-10	/	-2	14	i	23	3
CC1CN(S(=O)(=O)c2ccc(NC(=O)c3cc(-c4ccccc4O)n[nH]3)cc2)CC(C)O1 (configuration not stated)	8	-13	-11	0	?	i	40	-5
Cn1c2c(c(=O)n(C)c1=O)[C@@]1(C(=O)Nc3ccccc31)C(C#N)=C(N)O2	0	11	/	8	21	i	-1	-3
O=C(NCCCN1CCCC1=O)c1cc(-c2ccc(F)cc2)nc2ccccc12	0	0	-9	/	-73	/	-8	/
Cc1cccc(C(=O)c2c(N)sc3c2CCCC3)c1	-3	1	-18	1	-11	i	12	-2
COc1ccc(C(=O)Oc2ccc[nH]c2=O)cc1	/	/	/	13	-3	i	22	8
CC(C)(C)OC(=O)NCCc1nnc(SCc2cccc(Cl)c2)o1	5	-3	6	11	7	i	-4	0
COc1ccc(C(=O)COC(=O)C(CCSC)NC(=O)COc2ccccc2)cc1 (configuration not stated)	-1	6	-7	/	-8	i	/	/
OCC1CCCCN1C(=S)NCc1ccco1 (configuration not stated)	0	3	/	6	-6	i	24	-1
CCCCNC(=O)CN1C(=O)C(CC)Oc2ccc(Cl)cc21 (configuration not stated)	-1	-4	-14	0	-5	i	0	2
COC(=O)c1c(NC(=O)c2ccc(Br)s2)sc2c1CCC2	-4	-2	-26	10	11	i	3	11
COc1ccc(Cl)cc1NC(=O)NCCCl	4	4	-16	-6	/	i	11	-2
Cc1ccc(SCC(=O)c2cc(C)c(O)c(C)c2)cc1	1	-2	-14	3	1	i	13	4
CCOc1ccccc1N(CC(=O)N1CCCCCC1)S(=O)(=O)c1ccc(C)cc1	-6	0	-4	-4	9	i	-7	-10
O=C(O)c1ccc2c(c1)[C@@H]1C=CC[C@@H]1[C@H](c1ccccn1)N2	-4	2	-11	/	-3	i	-26	/
Cc1ccc(C(=O)c2cc3ccccc3o2)cc1[N+](=O)[O-]	-1	1	0	-15	-9	i	-1	-3
C/C(=N\NC(=O)c1nnn(-c2nonc2N)c1CN(C)c1ccccc1)c1cccc(O)c1	-2	-3	-24	-2	-7	i	-4	-12
CC(=O)c1ccc(S(=O)(=O)N2CCN(C(=O)C3CCCC3)CC2)cc1	3	2	-17	7	-2	i	14	-11
Cc1ccccc1NS(=O)(=O)c1nnc(NC(=O)c2ccccc2F)s1	1	2	-6	10	-11	i	-6	-4
CCOc1ccc(NC(=O)CN(C)C(=O)c2ccccc2SCC(=O)N2CCCC2)cc1OCC	5	-2	/	/	-1	i	-13	/
CCn1c(SCC(=O)Nc2ccccc2F)nnc1-c1ccoc1C	-3	-5	-8	-5	11	i	/	6
CC1CCN(c2oc(-c3ccccc3F)nc2C#N)CC1	0	-4	-15	-10	-44	i	/	3

Molecules listed so far that have four or more nitrogen atoms (13):
SMILES	MT1-MMP act inh	MT1-MMP act inh RFP	UUG fidelity	PABP FP inh	HIV Env fusion	Rce1 inhib	CSC inhib	eIF4H inh	others
COc1ccc(OC)c(NC(=O)CSc2nc3nc(C)cc(C)n3n2)c1	-1	0	-10	/	/	/	-16	/
CCOc1ccc(-c2csc(Cn3c(CN4CCN(C)CC4)nc4ccccc4c3=O)n2)cc1	-7	-7	/	-3	32	i	3	-3
CCCCCSc1nnc(-c2cc(Br)ccc2N)c(=O)[nH]1	2	1	/	4	-20	i	5	-7
O=C(Nc1ccon1)C12CC3CC(C1)CC(n1cnc([N+](=O)[O-])n1)(C3)C2	-2	4	-14	-6	-22	i	/	8
CC(=O)Nc1cccc(C(=O)N/N=C/c2cccnc2)c1	1	5	-7	-17	17	i	-9	3
COc1cccc(-c2nn(-c3ccccc3)cc2CN(C)C(C)c2ccncn2)c1 (configuration not stated)	0	0	-12	9	0	i	2	-1
Cc1cc2nc(-c3ccncc3)cc(C(F)(F)F)n2n1	2	6	/	-3	-8	i	-10	-9
O=C(COc1nnc2ccccn12)N1CCN(S(=O)(=O)c2ccccc2)CC1	4	6	-8	/	-3	i	13	/
CC1CN(S(=O)(=O)c2ccc(NC(=O)c3cc(-c4ccccc4O)n[nH]3)cc2)CC(C)O1 (configuration not stated)	8	-13	-11	0	?	i	40	-5
Cn1c2c(c(=O)n(C)c1=O)[C@@]1(C(=O)Nc3ccccc31)C(C#N)=C(N)O2	0	11	/	8	21	i	-1	-3
C/C(=N\NC(=O)c1nnn(-c2nonc2N)c1CN(C)c1ccccc1)c1cccc(O)c1	-2	-3	-24	-2	-7	i	-4	-12
Cc1ccccc1NS(=O)(=O)c1nnc(NC(=O)c2ccccc2F)s1	1	2	-6	10	-11	i	-6	-4
CCn1c(SCC(=O)Nc2ccccc2F)nnc1-c1ccoc1C	-3	-5	-8	-5	11	i	/	6

Looked up one by one from the entries so far:
SMILES	MT1-MMP act inh	MT1-MMP act inh RFP	UUG fidelity	PABP FP inh	HIV Env fusion	Rce1 inhib	CSC inhib	eIF4H inh	others
CSc1cnn(Cc2ccccc2)c(=O)c1SCc1ccccc1	0	-10	/	-2	14	i	23	3
COC(=O)c1c(NC(=O)c2ccc(Br)s2)sc2c1CCC2	-4	-2	-26	10	11	i	3	11
